Bioassay records: PubChem, National Center for Advancing Translational Sciences (NCATS)
CtBP-E1A blk: CtBP/E1A binding inhibition; 340,000 tested, 0.49% active; AID 651724; AlphaScreen GST-E1A/His-CtBP binding, 1536-well; active compounds read low; control for the full effect not named in the record; activity change, % (no concentration beside the values); in the data active means activity change below about -65%; inconclusive means about -30% to -65%; inactive means above about -30%; note: % is set by controls: 0 for no effect and ±100 for the full control effect
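Homogeneous bead-based format: GST-tagged E1A captured on glutathione donor beads, His-tagged CtBP on nickel acceptor beads; compounds precede bead addition by 2 h at 37 °C.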
TRPML1 agonist: activates the human TRPML1 channel; activation, % (test concentration not listed); TRPML1-expressing cells, Ca2+ dye fluorescence, FDSS; host cell line not named in the record; reference of the full effect not given here; 410,000 tested, 0.12% active; in the data active = activation above about 50%; inconclusive = about 30% to 50%; inactive = below about 30%; note: 0% is about no effect; the text of the record puts the active cut at 80%
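Agonist activity was taken from a 110 s kinetic Ca2+ dye read on the FDSS after pinning compounds onto TRPML1-DL cells. The cells were seeded at 1,500/well with Tet inducer, incubated about 16 h, then dye-loaded at room temperature.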
D2 agonist: agonists of human D2 dopamine receptor (beta-arrestin); activation, % (test concentration not listed); P14416; AID 624465; DiscoveRx PathHunter D2 beta-arrestin, luminescence, 90 min; 100% = 57 uM dopamine signal; 360,000 tested, 0.084% active; in the data active = activation above about 40%; inconclusive = about 15% to 40%; inactive = below about 15%; note: compound concentration not given in the record; the text of the record calls up to 30% inactive
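Agonist mode: compounds alone added to overnight-plated D2 PathHunter cells for 90 min at 37 C, with 57 uM final dopamine (EC100) defining full response. Beta-arrestin recruitment detected by chemiluminescent reagent, read after 1 h at ambient temperature.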
Six1-Eya2 inh: blocks human Six1 binding to Eya2; activity change, % (concentration not given with the values); AID 651725; 360,000 tested, 0.56% active; Q15475+O00167; AlphaScreen GST-Six1/His-Eya2 binding, biochemical; active compounds read low; control for the full effect not named in the record; in the data active = activity change below about -65%; inconclusive = about -30% to -65%; inactive = above about -30%; note: % is set by controls: 0 for no effect and ±100 for the full control effect
Target sequence (O00167 whole entry, looked up): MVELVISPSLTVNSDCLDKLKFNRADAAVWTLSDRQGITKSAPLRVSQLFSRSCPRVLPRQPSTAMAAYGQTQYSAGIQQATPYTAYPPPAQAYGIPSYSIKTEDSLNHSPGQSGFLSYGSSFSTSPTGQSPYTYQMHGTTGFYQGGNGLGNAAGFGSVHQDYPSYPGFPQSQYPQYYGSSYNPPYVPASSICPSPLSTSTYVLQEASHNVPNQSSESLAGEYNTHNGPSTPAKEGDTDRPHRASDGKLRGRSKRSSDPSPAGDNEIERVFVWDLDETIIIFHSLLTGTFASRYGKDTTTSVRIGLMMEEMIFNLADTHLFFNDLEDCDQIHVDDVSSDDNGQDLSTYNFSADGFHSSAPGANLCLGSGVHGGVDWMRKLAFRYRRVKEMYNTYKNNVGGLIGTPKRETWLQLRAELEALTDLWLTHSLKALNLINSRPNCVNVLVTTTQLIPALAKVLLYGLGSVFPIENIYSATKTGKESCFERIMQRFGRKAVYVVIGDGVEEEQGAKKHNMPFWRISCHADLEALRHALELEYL
Target sequence (Q15475 whole entry, looked up): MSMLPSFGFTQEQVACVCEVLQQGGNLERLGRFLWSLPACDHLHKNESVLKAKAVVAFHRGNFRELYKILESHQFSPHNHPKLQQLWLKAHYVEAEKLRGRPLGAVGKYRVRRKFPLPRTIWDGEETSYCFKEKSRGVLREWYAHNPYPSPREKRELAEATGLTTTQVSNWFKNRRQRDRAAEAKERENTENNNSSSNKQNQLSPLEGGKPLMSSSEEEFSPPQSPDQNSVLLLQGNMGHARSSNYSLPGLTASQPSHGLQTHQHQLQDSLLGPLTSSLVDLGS
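Six1/Eya2 binding was read as AlphaScreen signal after compounds were pinned into GST-Six1 plus His-tagged Eya2 (5X stock 250/500 nM) in pH 8.0 Tris/NaCl/TCEP buffer, beads added, then incubated 1 h, 37 C, dark.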
D2 PAM: potentiates the human D2 dopamine receptor allosterically; P14416; DiscoveRx D2 beta-arrestin cells, luminescence, 90 min; 100% = 57 uM dopamine signal; potentiation, % (concentration not given with the values); 360,000 tested, 0.23% active; active = potentiation of 50% or more; inconclusive = 30% to 50%; inactive = 30% or less;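 note: compound concentration not given in the record; tested on top of an EC20 dose of dopamine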
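PathHunter D2 cells, attached overnight at 37 deg C, received compound in DMSO plus dopamine at EC20 (50 nM final) for 90 min at 37 deg C. Beta-arrestin recruitment was read as luminescence after 1 h with detection reagent at ambient temperature.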
PINK1 expr mod: modulators of PINK1 expression. PINK1 immunofluorescence, high-content cytometry, 24 h. Potency, µM (top dose mostly 76.6 µM), for inactives: at the highest dose activation (PINK1 increase), usual class: activators. 410,000 tested, 0.2% active. AID 624263; active = well fitted activation curve with a large enough effect; inconclusive = small, poorly fitted or top-dose-only effect; inactive = flat fitted curve, though single readings scatter; cell line not stated here;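 note: potency is the fitted concentration of half-maximal effect; % of control where 0% means no effect; nearly all actives have a fitted effect of over 65% in size; a mitochondrial uncoupler was the plate control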
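PINK1 protein level read as immunofluorescence by microplate cytometer in a fixed, stained stable cell line after 24 h exposure to five compound concentrations, with CCCP as control.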
* hit, by the source's call; ? = inconclusive; nt = not tested or not shown; & = joins results of further samples; [ ] = remark or other dose. Hits appear at their usual frequency (roughly 1.3% active in at least one column).

SMILES	CtBP-E1A blk	TRPML1 agonist	D2 agonist	Six1-Eya2 inh	D2 PAM	PINK1 expr mod
CCCOc1ccc(/C=C/C(=O)Nc2ccc([N+](=O)[O-])cc2C)cc1OC	-2	0.0	-2.2	-4	-1	13%
Cc1cc(C)n2nc3nc4c(cc3c2n1)CCCC4	-21	3.0	-3.6	-19	-9	-1.8%
COc1ccc(N2CCN(C(=O)c3ccc4c(Cl)c5c(nc4c3)CCCC5)CC2)cc1	?	0.4&-0.6	-3.4	?	-5	-0.1%&0.0%
O=C(O)c1cc(S(=O)(=O)N(Cc2ccccc2)c2ccccc2)ccc1Cl	nt	1.5	1.0	8	-5	-0.1%
CSC[C@H](NC(=O)COc1cc2c(c3oc(=O)c(C)c(C)c13)CCC(C)(C)O2)C(=O)O	?	-0.7	-2.7	?	5	-2.7%
CCOC(=O)c1ccc(NC(=O)c2nc[nH]c2C(=O)NC[C@@H](C)O)cc1	-4	nt	1.1	-3	nt	0.4%
O=C(COC(=O)c1ccc(Cl)nc1)Nc1nnc(-c2ccccc2)o1	?	-0.4	-3.8	-28	-7	-3.1%
CC(C)(C)c1cn(-c2ccccc2)c(=S)[nH]1	-6	0.5	0.3	-2	-4	-0.3%
C#CCOCCOCCOCCNc1nc(N2CCN(C(=O)[C@H](CCC(=O)O)n3cc(C(N)CC(C)C)nn3)CC2)nc(N2CCN(C(=O)[C@H](Cc3cc4ccccc4[nH]3)n3cc(C(N)CC(C)C)nn3)CC2)n1 (some centres not stated)	-15	-0.2	1.3	-13	-8	-0.9%
Cc1cc(Nc2ccc(C(=O)O)cc2)nc(N)n1	-3	0.9	0.0	-6	-3	2.6%
OC(c1cccc(OCc2ccccc2)c1)c1nnc(-c2ccccc2)o1 (configuration not stated)	-2	0.9	-0.1	-3	-5	-1.4%
O=c1c2c([nH]n1-c1ccccc1)CCSC2	22	1.0	-3.4	5	-5	0.6%
CCCCc1ccc(NC(=O)COC(=O)c2ccc3ncsc3c2)cc1	3	-0.7	-5.2	-11	-4	2.7%
Cc1occc1C(=O)NCCc1ccc(Cl)cc1	8	0.0	-0.8	-2	-18	8.4%[38.3 µM]
COc1ccc(OCCN2CCC(C(=O)NC(c3ccccc3)c3ccc4ccccc4n3)CC2)cc1 (configuration not stated)	-17	-0.4	-5.2	-23	-12	-0.9%
CCCCc1cc(=O)oc2cc(OC3CCCCC3=O)ccc12 (configuration not stated)	nt	0.4	1.8	22	-7	12%
CC(=O)NC12CC3CC(C1)CC(C(=O)OCC(=O)c1cc(C)n(C)c1C)(C3)C2	-5	0.0	7.1	-1	9	-0.4%
COC(=O)c1c(NC(=O)CN2CCCc3ccccc32)sc(C)c1C	-1	0.7	1.4	-10	-3	11%
O=C(c1cnn(C(=O)c2ccco2)c1)c1cc(Cl)cc(Cl)c1O	4	0.9	-0.9	-5	-2	2.9%
COc1c(C(=O)NNC(=O)c2ccccc2)csc1Br	10	-0.6	-1.2	1	-2	1.3%

Two compounds drawn at random from the list so far:
SMILES	CtBP-E1A blk	TRPML1 agonist	D2 agonist	Six1-Eya2 inh	D2 PAM	PINK1 expr mod
CC(C)(C)c1cn(-c2ccccc2)c(=S)[nH]1	-6	0.5	0.3	-2	-4	-0.3%
COC(=O)c1c(NC(=O)CN2CCCc3ccccc32)sc(C)c1C	-1	0.7	1.4	-10	-3	11%

(cont.)
SMILES	CtBP-E1A blk	TRPML1 agonist	D2 agonist	Six1-Eya2 inh	D2 PAM	PINK1 expr mod
O=C1c2ccccc2C(=O)N1CCOc1ccc(F)cc1	nt	1.6	3.6	23	-13	-0.4%
COC(=O)C1=C(C)N(c2ccc(C)cc2)/C(=C/c2ccc(O)cc2)C1=O	nt	0.8	0.2	-1	0	7.2%
CC(C)(C)c1ccc(-c2nc3n(c(=O)c2C#N)CCS3)cc1	2	2.1	-4.3	-2	1	1.4%
CCC(=O)N(Cc1cc2cc(OC)ccc2[nH]c1=O)c1cc(C)ccc1C	3	0.0	-3.9	-1	-12	-1.5%
Cc1cccc(NC(=O)CN(C)S(=O)(=O)c2cccc3cccnc23)c1C	nt	-0.3	-3.8	-2	-18	-1.5%
Cc1nc2cc(NC(=O)COc3ccccc3C#N)ccc2n1-c1ccccc1	-2	1.2	-3.9	-1	-9	-1.6%
CCN(C(=O)Cn1nnc(-c2ccccc2)n1)C1CCS(=O)(=O)C1 (configuration not stated)	10	-0.2	-1.7	-2	-7	-5.7%
Cc1cccc(N2C(=O)CCC2=O)c1	-1	0.7	0.8	7	-7	0.4%
Cc1cccc(NS(=O)(=O)c2cccc(C(=O)NCC3(N4CCOCC4)CCCCC3)c2)c1	-12	0.5	-2.9	-3	-4	2.4%
CC1CC(C)CN(S(=O)(=O)c2ccc(C(=O)N(c3ccccn3)C3CCCCC3)cc2)C1 (configuration not stated)	-2	0.2	0.3	-3	-11	-0.6%
O=C(O)/C=C/C(=O)Nc1ccc2nccnc2c1	11	2.0	-1.6	6	-1	3.6%
COc1ccc(CCN2CC(C(=O)NCc3cc(C)on3)CCC2=O)cc1 (configuration not stated)	0	-0.7	-5.3	1	-2	-0.9%
CC(C)CC(C(=O)OCC(=O)c1c(N)n(C)c(=O)n(C)c1=O)N1C(=O)C2CC=CCC2C1=O (configuration not stated)	-2	-0.4	-5.1	-5	3	0.9%
COc1ccc(-n2nc(C(=O)NCC(=O)N(C)Cc3ccccc3)c3ccccc3c2=O)cc1OC	3	1.1	-1.3	7	1	1.1%
COc1ccc(CN(C)C(=O)CCc2ccc(S(=O)(=O)N3CCCCCC3)cc2)c(OC)c1	-3	2.0	10	-2	0	-0.2%
O=C(NCCn1c(C(F)(F)F)nc2cc(C(F)(F)F)ccc21)[C@H]1CCCN1c1nc(CN2CCCCC2)cs1	nt	4.4	-4.0	6	-17	-0.4%
CCNC(=S)Nn1cnc2ccccc21	3	0.9	5.3	5	2	0.0%
Cc1ccc(C)c(-c2nnc(NC(=O)CCS(=O)(=O)c3ccc(F)cc3)o2)c1	7	0.1	3.6	3	11	5.5%
COc1cc(NC(=O)CSCC(=O)Nc2cc(OC)cc(OC)c2)cc(OC)c1	-1	1.3	-1.7	-1	-14	1.4%
CCN(C1CCCCC1)S(=O)(=O)c1cn(C)c(=O)n(C)c1=O	1	0.0	-3.7	2	-6	0.7%

(cont.)
SMILES	CtBP-E1A blk	TRPML1 agonist	D2 agonist	Six1-Eya2 inh	D2 PAM	PINK1 expr mod
Cc1c(N2C(=O)C(C)SC23C(=O)Nc2ccccc23)c(=O)n(-c2ccccc2)n1C (configuration not stated)	9	2.8	-1.7	1	5	-1.7%[38.3 µM]
Cc1ccc(S(=O)(=O)CCC(=O)OC(C)c2nnc(-c3cccs3)o2)cc1 (configuration not stated)	-5	5.1	-2.1	0	-3	3.6%
CCCC(=O)OCC(=O)Nc1ccc(OC(F)F)cc1	-5	0.3	0.6	2	-4	0.8%
COC(=O)c1ccc(Oc2cc(C)nc(Cl)n2)cc1	nt	0.7	-2.4	8	-6	-0.6%
O=C(CNC(=O)c1ccccc1)OCc1nnc(-c2ccccc2)o1	-1	-0.6	-4.0	5	-1	-1.0%
CC(=O)Oc1c(C)c(=O)n(C)c2ccccc12	3	-0.2	-3.6	4	6	-0.2%
CC(=O)c1c(C)[nH]c(C(=O)OCC(=O)N(Cc2ccccc2)C(C)(C)C)c1C	0	1.5	-3.6	-5	-13	4.6%
CC(=O)N1N=C(c2ccccc2O)OC1(C)CC(=O)Nc1ccccc1 (configuration not stated)	6	0.1	-6.7	-6	-8	0.2%
COc1ccc(NC(=O)c2ccc(S(=O)(=O)N(C)c3ccccc3)cc2)cn1	1	1.2	-0.5	5	-21	1.0%
Cc1ccc(CNCc2ccc3c(c2)OCO3)cc1	1	0.3	0.2	-1	-12	3.2%
Cc1nn(CC(=O)NCCCN2CCOCC2)c(C)c1[N+](=O)[O-]	6	1.0	1.1	0	-2	-2.4%[38.3 µM]
CCOc1ccc(C(=O)NCC(c2cccs2)N(C)C)cc1OCC (configuration not stated)	0	-0.2	-1.6	1	-26	-1.9%
CCOC(=O)c1c(C)n(C)c2cc(Br)c(C)cc12	0	2.0	-0.2	8	-12	-2.6%[38.3 µM]
COC(=O)c1cc(S(=O)(=O)NC2CCCCC2)cn1C	nt	0.0	-0.3	-5	-1	1.3%
O=C(NCc1ccc2c(c1)OCO2)c1ccc2c(c1)S(=O)(=O)c1ccccc1C2=O	-11	-1.2	6.3	-21	4	0.1%
CCn1cc(/C=C(\NC(=O)c2ccccc2)C(=O)N2CCOCC2)c2ccccc21	5	0.5	-1.2	-1	-12	3.2%
COc1cccc(-c2nnc(SCc3nc4ccccc4s3)n2C)c1	1	-0.2	-0.2	0	11	-1.1%
CCc1cccc2c(C(=O)COC(=O)/C=C/c3ccccc3OC)c[nH]c12	-23	-0.3	-6.0	-10	-6	1.8%
Cc1ccc(NC(=O)C(=O)NCc2ccco2)c(C)c1	-15	0.0	-1.7	18	0	5.9%
O=C(CNCc1ccccc1Cl)Nc1ccc2c(c1)OCCO2	nt	-0.6	-2.6	1	-21	1.4%

More results.
SMILES	CtBP-E1A blk	TRPML1 agonist	D2 agonist	Six1-Eya2 inh	D2 PAM	PINK1 expr mod
Cn1nc(C(=O)Nc2ccc(S(=O)(=O)N3CCCCC3)cc2)ccc1=O	8	0.9	-2.0	-2	5	1.2%
CNS(=O)(=O)c1ccc2c3c(cccc13)C(=O)N2C	-2	-0.2	3.5	-2	-1	-0.7%
COc1cccc(C2C=C(Nc3ccccc3)C(=O)N2c2ccccc2)c1 (configuration not stated)	0	0.4	-0.8	-7	-13	9.3%
O=C(COC(=O)c1cc(S(=O)(=O)N2CCOCC2)ccc1F)c1ccccc1	3	-0.2	1.1	1	5	4.1%
CCOc1cc(C2Nc3ccccc3NC3=C2C(=O)CC(C)(C)C3)ccc1OC(C)=O (configuration not stated)	9	-0.1	-3.2	4	-3	0.9%
S=C(Nc1ccc(Cl)cc1)N1CCCCC1	-3	0.2	-0.2	-14	-8	0.4%
